From PubChem
ClpP mod – qHTS Assay for Activators of ClpP. ATP-dependent Clp protease proteolytic subunit (Bacillus subtilis (strain 168)), P80244. purified B. subtilis ClpP, FRET peptide cleavage, 20 min. Potency, µM (titrated, usually from 57.5 µM), for the others: top-dose activity change, negative = active. 340,000 tested, 1.9% active; active = well fitted falling curve with a large enough effect; inconclusive = small, poorly fitted or top-dose-only effect; inactive = no such curve, though single readings can be large or run the other way; note: potency is the fitted concentration of half-maximal effect; the source files actives as falling curves though it sought activators and does not explain the sign; nearly all actives have a fitted effect of over 65% in size; many hits overshoot -100%
Target sequence (P80244 whole entry, looked up): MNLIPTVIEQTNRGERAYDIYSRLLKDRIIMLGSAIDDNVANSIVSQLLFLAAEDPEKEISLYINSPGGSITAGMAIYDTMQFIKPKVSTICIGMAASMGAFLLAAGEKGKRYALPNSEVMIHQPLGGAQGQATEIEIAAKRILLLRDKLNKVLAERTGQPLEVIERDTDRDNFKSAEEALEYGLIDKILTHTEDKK
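Purified B. subtilis ClpP, 10 microg/mL final in Tris/HCl pH8 with KCl, BSA, glycerol and Tween-20, cleaved an Abz/nitrotyrosine-quenched decapeptide. Fluorescence (ex 320, em 430) was read at 0 and 20 min at room temperature. Delta was normalized to 5.8 microM ADEP and DMSO/no-enzyme controls.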
CtBP-E1A inh – blocks the CtBP interaction with E1A | AlphaScreen GST-E1A/His-CtBP binding, 1536-well; hits give low values; control for the full effect not named in the record | activity change, % (test concentration not listed) | 340,000 tested, 0.49% active | AID 651724; in the data active means activity change below about -65%; inconclusive means about -30% to -65%; inactive means above about -30%; note: % is set by controls: 0 for no effect and ±100 for the full control effect; compound concentration not given in the record
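Homogeneous bead-based format: GST-tagged E1A captured on glutathione donor beads, His-tagged CtBP on nickel acceptor beads; compounds precede bead addition by 2 h at 37 °C.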
Sfp PPTase inh – inhibitors of Bacillus subtilis Sfp phosphopantetheinyl transferase | Potency, µM, inactives show max response, negative = inhibition, hits mostly inhibitors | Biochemical Sfp PPTase activity, qHTS | Q9F4F7 | 310,000 tested, 3.5% active; active = well fitted inhibition curve with a large enough effect; inconclusive = small, poorly fitted or top-dose-only effect, or another doubt; inactive = no such curve, though single readings can be large or run the other way;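 note: the enzyme is Sfp with the accession as filed and its product quenches rhodamine fluorescence; potency is the fitted concentration of half-maximal effect; 0% = enzyme reaction without inhibitor and -100% = no enzyme wells; top concentration of the series not given in the record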
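Buffer: 50 mM Hepes-Na pH 7.6, 10 mM MgCl2, 0.01% Nonidet P-40, 0.01% BSA. Enzyme 15 nM, pre-exposed to compound 15 min; substrates then added and fluorescence change tracked over 30 min.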
gsp ag – gsp mutant agonism | gsp mutant cells, cAMP HTRF, 30 min; control for the full effect not named in the record | Potency, µM (titrated, usually from 76.9 µM), for inactives: at the highest dose activation (cAMP increase), most hits filed as activators | 340,000 tested, 0.13% active; active = well fitted activation curve with a large enough effect; inconclusive = small, poorly fitted or top-dose-only effect, or another doubt; inactive = no such curve, though single readings can be large or run the other way; cell line not stated here;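 note: phosphodiesterase inhibitor Ro 20-1724 added with compounds to block cAMP breakdown; potency is the fitted concentration of half-maximal effect; nearly all actives have a fitted effect of over 60% in size; about a fifth of the inactives were tested at one dose only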
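Cells stably selected in G418 were plated at 2000/well, grown 16-24 hr, then given compounds in DMSO with the PDE inhibitor […] (300 uM solution added) for 30 min at 37C; cAMP was read by HTRF.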
TRPV1 potentiator – enhances activation of the human vanilloid receptor TRPV1 | 320,000 tested, 0.02% active | TRPV1-expressing cells, Fluo-8 calcium influx, capsaicin EC20 potentiation; host cell line not named in the record; control for the full effect not named in the record | Q8NER1 | potentiation, % at 8.33 µM; active means potentiation above 80%; inconclusive means 30% to 80%; inactive means below 30%; note: 0% is about no effect
Target sequence (Q8NER1 whole entry, looked up): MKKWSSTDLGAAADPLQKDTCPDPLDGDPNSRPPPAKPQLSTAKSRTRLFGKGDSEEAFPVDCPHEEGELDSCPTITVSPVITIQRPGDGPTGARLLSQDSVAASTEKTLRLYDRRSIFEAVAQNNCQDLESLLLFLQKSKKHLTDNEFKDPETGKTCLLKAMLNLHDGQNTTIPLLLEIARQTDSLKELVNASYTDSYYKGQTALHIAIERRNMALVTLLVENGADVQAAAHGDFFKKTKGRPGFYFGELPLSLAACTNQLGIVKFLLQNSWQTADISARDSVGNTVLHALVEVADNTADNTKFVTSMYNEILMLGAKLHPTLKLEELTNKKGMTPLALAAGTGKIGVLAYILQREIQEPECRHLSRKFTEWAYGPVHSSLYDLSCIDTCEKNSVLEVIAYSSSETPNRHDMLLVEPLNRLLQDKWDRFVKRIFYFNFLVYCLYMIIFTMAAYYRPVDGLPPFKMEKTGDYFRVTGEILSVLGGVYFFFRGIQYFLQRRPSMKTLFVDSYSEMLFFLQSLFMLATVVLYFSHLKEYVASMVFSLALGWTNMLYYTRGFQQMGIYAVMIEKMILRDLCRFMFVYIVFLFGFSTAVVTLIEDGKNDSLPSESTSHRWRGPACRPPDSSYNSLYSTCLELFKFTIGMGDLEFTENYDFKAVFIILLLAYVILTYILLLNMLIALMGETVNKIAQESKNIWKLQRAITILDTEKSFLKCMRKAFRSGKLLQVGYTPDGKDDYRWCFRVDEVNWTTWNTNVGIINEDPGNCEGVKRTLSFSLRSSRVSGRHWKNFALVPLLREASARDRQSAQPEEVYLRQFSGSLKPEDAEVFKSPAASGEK
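TRPV1-expressing cells were cultured overnight at 35.5C and loaded with Fluo-8 calcium dye for 40 to 90 min at room temperature. After a 10 s baseline, compound was added and calcium influx was read kinetically for 3 min (ex 480/em 520 nm).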
gsp antag – antagonizes gsp, the McCune-Albright syndrome mutation | gsp-mutant cells, cAMP HTRF, 30 min; control for the full effect not named in the record | Potency, µM (doses to about 76.9 µM), for inactives: at the highest dose activity change, negative = inhibition, hits mostly inhibitors | 340,000 tested, 0.4% active | AID 624288; active = falling curve of any shape with a large fitted effect; inconclusive = falling curve, mostly with a smaller effect; inactive = flat or rising curve; cell line not stated here;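 note: intracellular cAMP measured with PDE inhibitor Ro 20-1724 present during compound exposure; potency is the fitted concentration of half-maximal effect; % is set by controls: 0 for no effect and ±100 for the full control effect; nearly all actives have a fitted effect of over 65% in size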
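Measurement of cellular cAMP by homogeneous time-resolved fluorescence following a 30 min compound exposure at 37C. The PDE inhibitor […] was present throughout; the assay buffer was DPBS with 0.05% BSA and 0.005% Tween 20.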
Menin-MLL FL inh – menin-MLL binding inhibition, fluorescein peptide | Fluorescence polarization, fluorescein-MLL peptide displacement from menin | FP activity change, % at 61.4 µM | 290,000 tested, under 10 active | AID 1766; inconclusive = falling polarisation curve, or a change in total fluorescence; inactive = total fluorescence flat and polarisation flat or rising; no compound was filed as active; the % refers to the polarisation; negative = inhibition;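 note: % of control where 0% means no effect; inhibitors lower the polarisation; unlabelled MLL peptide was the positive control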
* hit, by the source's call; ? = inconclusive; . = not tested or not shown; [ ] = remark or other dose. Not a hit list; overall some 5.3% were active at least once.

Order of results: ClpP mod | CtBP-E1A inh | Sfp PPTase inh | gsp ag | TRPV1 potentiator | gsp antag | Menin-MLL FL inh
Cc1cc(C(=O)Nc2cccc(S(=O)(=O)N3CCOCC3)c2)c2ccccc2n1
 : -0.6% | . | . | 11% | . | -1% | .
Cc1cc(C(F)(F)F)n2nc(-c3cnn(C)c3C(F)(F)F)c(Cl)c2n1
 : -0.8% | -2 | 5% | 0% | 2 | 3% | 5.6
COc1ccc([C@@H](C)NC(=O)c2ccc3oc(C(C)C)nc3c2)cc1
 : -0.2% | 2 | 19% | 21% | -1 | 7% | 5.2
CC1(C)CC(=O)C=C(NCCN2CCN(C(=O)Nc3ccc(Cl)cc3)CC2)C1
 : 1.4% | 5 | 18% | ? | 11 | -7% | 2.2
COc1ccc(Cl)cc1C(=O)N1CCC2(CC1)CC(=O)c1ccccc1O2
 : ? | -4 | . | 8% | -3 | -34% | .
CCOc1ccc(S(=O)(=O)N2Cc3ccccc3CC2C(=O)NCCCn2ccnc2)cc1 (stereo not drawn)
 : -1.7% | 4 | 20% | 10% | 29 | 8% | 3.8
CCOC(=O)N1CCN(c2ccc([N+](=O)[O-])cc2)CC1
 : -1.6% | 1 | 1% | -35%[inhibitor] | -23 | 3% | 14
Cc1csc2cc(-c3cccc([N+](=O)[O-])c3)c(-c3cccc([N+](=O)[O-])c3)c[n+]12
 : 0.7% | 0 | 22% | 28%[15.4 µM] | -10 | 18% | 9.3
COc1ccccc1NS(=O)(=O)c1ccc(C(=O)NCCCn2ccnc2)cc1
 : 0.1% | 3 | . | 19% | 13 | 15% | .
COc1cccc(-n2nc(C(=O)Nc3ccc4c(c3)OCO4)c3ccccc3c2=O)c1
 : 1.0% | -9 | -9% | 21% | 6 | -3% | 2.1
COc1cccc(SCc2noc(C(=O)NCCN(C)C)c2C(=O)NCCN(C)C)c1
 : -0.7% | 3 | . | . | . | 16% | .
CCn1c(N)nc2c1c(=O)n(C)c(=O)n2C
 : 0.0% | 21 | 13% | ? | -9 | 11% | 1.1
CN(Cc1nccn1C)C(=O)C1CCC(=O)N(Cc2cccc(C(F)(F)F)c2)C1 (stereo not drawn)
 : -1.0% | 7 | 13% | -1% | 0 | 3% | 0.3
CC(=O)c1ccc(OC(C)C(=O)NC2CCCCC2C)cc1 (stereo not drawn)
 : 2.6% | 20 | . | -33%[inhibitor] | 9 | -7% | .
COc1ccccc1-c1sc2cc3c(cc2c1C#CC1(O)CCCCC1)OCO3
 : 3.7% | 3 | . | . | -34 | -5% | .
CCOC(=O)c1cc2c(ccn2C)n1Cc1ccc(C#N)cc1
 : -8.0% | . | -8% | 1% | 12 | -10% | -6.8
CCOc1ncccc1C(=O)N1CCN(c2cc(Cl)ccc2C)CC1
 : . | 0 | 6% | -2%[15.4 µM] | -7 | 23% | -2.4
O=C(O)c1cc(N/N=C/c2ccc3c(c2)OCO3)ccc1Cl
 : . | -14 | -5% | -23% | 8 | 1% | 3.6
COc1ccc(-n2c(-c3ccc(Br)cc3)c[n+]3c2CCCCC3)cc1
 : . | . | 15% | 7%[15.4 µM] | 1 | 6% | 2.1
O=C1c2ccc3c4c(ccc(c24)C(=O)N1Cc1cccnc1)C(=O)N(Cc1cccnc1)C3=O
 : . | . | 18% | . | -4 | . | -0.2
CCOc1ccc2nc(NC(=O)CS(=O)(=O)c3ccccc3)sc2c1
 : 0.7% | 3 | 6% | -28% | 2 | -7% | -0.2
CCCNC(=O)[C@H]1N2C(=O)c3c(ccc(OC)c3OC)C2SC1(C)C (stereo partly drawn)
 : -3.0% | -6 | 10% | -7%[15.4 µM] | 3 | 3% | -9.6
O=C(Cc1ccc(Cl)cc1)Nc1ccc(Cl)cn1
 : . | 0 | 30% | -30% | -16 | 14% | -2.5
CNC(=O)C(=O)N1CCC2(CC1)OCCN2S(=O)(=O)c1ccc(C)cc1
 : . | 7 | . | 15%[15.4 µM] | -3 | 1% | .
Cc1cccc(NC(=O)COC(=O)c2c(-c3ccccc3)noc2C)c1
 : -0.1% | 3 | . | -208%[inhibitor] | . | . | .
COc1ccccc1C1CCN(C(=O)C2CCCCC2)CC1
 : -2.8% | . | 16% | 17% | -7 | 1% | -3.7
COCCCNC(=O)CCn1c(=O)c2ccccc2n(CC(=O)Nc2ccccc2C)c1=O
 : -6.8% | 1 | 15% | 3% | -2 | 6% | 2.0
COc1cccc(CNC(=O)C2CCCN(c3nn4c(=O)cc(C)nc4s3)C2)c1OC (stereo not drawn)
 : 0.3% | -1 | 14% | -37%[inhibitor] | 8 | 7% | 3.6
CCCCCCC(=O)N(O)C1CC(=O)N(c2ccc(Br)cc2)C1=O (stereo not drawn)
 : 0.7% | -3 | 22µM* | -11% | 7 | -3% | 4.8
CC1(C)OC2OC3C(CNCCO)OC(c4ccccc4)OC3C2O1 (stereo not drawn)
 : ? | 0 | . | -34%[inhibitor] | . | 12% | .
C#CCn1c(S(=O)(=O)Cc2ccc(OC)cc2)nc(-c2ccccc2)c1-c1ccccc1
 : -7.6% | -12 | 14% | -15% | -5 | -6% | 3.2
C=CCc1ccccc1OCCNCc1ccccc1
 : . | 0 | -20% | -4%[15.4 µM] | 0 | 21% | -1.0
Cc1ccc(NC2CC(=O)N(Cc3ccccc3)C2=O)cc1 (stereo not drawn)
 : -0.4% | 0 | 11% | 9% | -12 | -7% | 2.9
Cc1nc2c(-c3ccccc3)c(C)[nH]n2c(=O)c1Cc1ccccc1
 : . | . | 16% | -11%[15.4 µM] | 0 | -11% | -2.7
COc1ccc(N(CC(=O)NC2CCCCC2)C(=O)CNC(=O)c2cccs2)cc1
 : . | -5 | 11% | -3%[15.4 µM] | 8 | 15% | .
COc1ccc(CCn2c(=N)c(C(=O)NC3CCCC3)cc3c(=O)n4ccccc4nc32)cc1
 : -13% | -5 | 1% | 12% | -5 | -6% | 2.3
Cc1[nH]c2ccccc2c1Cc1nnc(SCC(=O)NCc2ccco2)o1
 : 0.2% | -2 | ? | -30%[inhibitor] | -17 | 7% | 3.2
CN(C)S(=O)(=O)c1cccc(-c2nnc(SCC(=O)NCCCCCC(=O)O)n2-c2ccc(F)cc2)c1
 : . | 23 | 12% | -5%[15.4 µM] | -7 | . | -2.6
CCOC(=O)c1c(C)[nH]c(C(=O)C(C)OC(=O)c2oc3ccccc3c2COC)c1C (stereo not drawn)
 : -7.3% | 0 | -2% | 3% | 9 | 7% | 0.4
COc1ccc(NC(=O)C2Cc3cc(S(=O)(=O)N4CCCCC4)ccc3N2C(C)=O)cc1Cl (stereo not drawn)
 : -0.4% | -14 | -1% | 9% | 17 | -10% | .
CC(CCc1ccc(O)cc1)NC1C2CC3CC(C2)CC1C3 (stereo not drawn)
 : 1.1% | -7 | 9% | -6% | 1 | 14% | 0.7
CN1CCN(CCNC(=O)c2ccc3nc(-c4ccc(F)cc4)c(-c4ccc(F)cc4)nc3c2)CC1
 : 3.6% | -9 | -20% | 9% | -9 | 7% | -5.8
COc1ccc(/C=N/NC(=O)Cn2nc(C)c([N+](=O)[O-])c2C)cc1
 : 0.1% | -1 | -2% | 0%[15.4 µM] | 4 | 7% | .
COc1ccc(C(=O)NC(=S)NNC(=O)c2ccco2)cc1
 : . | -1 | 22% | 14% | ? | 2% | 2.3
Cc1cc(C)cc(NS(=O)(=O)c2ccc(NC(=S)NC(=O)c3cccs3)cc2)c1
 : 1.0% | -14 | -6% | 2% | 11 | -1% | .
CS(=O)(=O)N1CCN(Cc2ccccc2C(F)(F)F)CC1
 : -1.6% | 0 | 11% | 4% | -5 | 1% | 1.1
COc1ccc(N2CCN(CCCNC(=O)C3CCC(CNc4nc(=S)[nH]c5ccccc45)CC3)CC2)cc1 (stereo not drawn)
 : . | 0 | 12% | 5%[15.4 µM] | 4 | -27% | 0.8
Cc1ccc(Nc2nc(CSc3nnc(-c4cccnc4)n3-c3ccccc3F)cs2)cc1
 : . | -6 | -30% | -12%[15.4 µM] | 4 | -1% | 9.2
COc1cccc(/C=N/NC(=O)c2cc(-c3cccn3C)n[nH]2)c1
 : -1.2% | ? | -3% | ? | 23 | -6% | 1.8
COc1ccc2cc(C(=O)NCc3ccccc3)c(=O)oc2c1
 : 4.0% | . | 3% | -1% | -17 | -3% | 0.9
O=C(CN1CCN(c2ccccn2)CC1)Nc1ccc(F)c(F)c1
 : . | 3 | 23% | 1% | -6 | 4% | 0.1
Cc1ccc(CNC(=O)COc2ccc3c(c2)CCC3)cc1
 : 0.8% | -7 | 9% | 20% | -11 | -1% | 2.3
O=C1NC(CCO)C(=O)NC1CCO (stereo not drawn)
 : . | 5 | . | 14% | . | -1% | .
C#CCN1C=CC(=O)[C@@H](OC(=O)Nc2ccccc2Br)[C@H]1c1ccccc1Br
 : -3.8% | -1 | . | . | . | -22% | .
CCc1nccn1S(=O)(=O)c1ccc(OC)c(OC)c1
 : -4.6% | -23 | 3% | -6% | 7 | 8% | 1.9
COc1ccc(NC(=O)COC(=O)c2ccc(Br)o2)cc1OC
 : -0.9% | 5 | 15% | -2% | -13 | 12% | 3.1
C#CCOc1c(/C=C\c2nc(O)c([N+](=O)[O-])c(=O)[nH]2)cc(Br)cc1OC
 : -0.9% | . | -6% | 23% | 1 | 3% | 4.9
O=C(Nc1nccs1)C1CCN(S(=O)(=O)c2ccccc2)CC1
 : . | 8 | -3% | -8% | -1 | 8% | 5.3
Clc1ccc(CSc2nnc(-c3sccc3-n3cccc3)o2)cc1
 : 31% | -2 | 18% | -9% | -4 | -2% | 0.0
O=C(Cc1ccccc1)NC(C(=O)O)C(O)c1ccc([N+](=O)[O-])cc1 (stereo not drawn)
 : 0.8% | . | 20% | 5% | -2 | 9% | 3.9
CCOC(=O)c1sc(NC(=O)C2CCCO2)c(C(=O)OCC)c1C (stereo not drawn)
 : . | . | 12% | . | -9 | . | -0.6
O=C(CSc1ccc2nnc(-c3cccnc3)n2n1)Nc1ccc(F)cc1
 : -6.6% | ? | -10% | 32%[15.4 µM] | 4 | -6% | .
